# Yeast UUG start: alters start codon recognition fidelity in yeast | S. cerevisiae UUG-firefly luciferase reporter, luminescence/redox ratio | activity score, % at 18.7 µM | actives 0.13% (n = 350,000) | AID 602363;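 active = replicate mean at a twofold rise or more, about +100% in these data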;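 note: firefly luciferase made from a UUG start codon reports start codon fidelity; reporter light over untreated wells divided by growth signal over untreated wells; some hits fall short of that in this replicate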
# Env fusion inh: inhibitors of HIV Env-mediated cell fusion; inhibition, % at 12.3 µM; AID 651610; actives 1.1% (n = 360,000); HeLa-JRFL Env/CEM21 cell fusion, luciferase;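 active = mean replicate inhibition score of at least 50 and every replicate individually at or above 50; inconclusive = only one of the two criteria met; inactive = mean below 50 and not all replicates reaching 50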;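 note: 0% = plate neutral controls and 100% = maraviroc near 300 nM; one replicate is shown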
# Rce1 inh: inhibitors of yeast Ras-converting enzyme; actives 0.27% (n = 290,000); calls only; Q03530; yeast membranes, quenched prenylated peptide cleavage fluorescence;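 active = fall in fluorescence gain of 50% or more versus controls, with final raw signal at or below 3038400; inconclusive = same 50% fall but final raw signal above 3038400; inactive = fall in fluorescence gain under 50%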;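 note: plate controls were neutral control wells for no effect and wells lacking membranes for full effect; tested at 10 µM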
# Target sequence (Q03530 whole entry, looked up): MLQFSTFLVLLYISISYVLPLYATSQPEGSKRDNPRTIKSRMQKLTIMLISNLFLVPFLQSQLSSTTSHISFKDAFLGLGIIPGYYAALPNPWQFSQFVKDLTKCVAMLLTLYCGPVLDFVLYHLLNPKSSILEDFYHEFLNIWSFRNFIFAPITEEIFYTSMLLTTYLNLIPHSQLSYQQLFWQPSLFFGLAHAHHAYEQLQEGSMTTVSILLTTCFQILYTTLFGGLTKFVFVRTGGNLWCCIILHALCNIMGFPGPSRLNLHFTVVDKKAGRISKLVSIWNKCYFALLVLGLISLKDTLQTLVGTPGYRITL
# MT1-MMP act inh: inhibitors of human MT1-MMP activation | P50281 | HT1080 RFP-PRO-GFP cells, GFP/RFP ratio fluorescence, overnight; percent of plate control window, DMSO zero | GFP/RFP ratio change, % at 20 µM | actives 0.061% (n = 360,000) | AID 651647;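 active = GFP/RFP ratio change of at least 30% with cell ATP level not reduced by more than half and red fluorescence within 50% of control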; note: strong numbers were not always called active
#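 Assay system – RFP-PRO-GFP reporter HT1080 cells · Compound dosing – single dose of 20 µM compound, 1% DMSO final · Incubation – overnight compound exposure at 37 °C · Measure – GFP/RFP fluorescence ratio · Benchmarks – DMSO wells and RFP-L50D-GFP cells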
# eIF4H FP inh: inhibitors of RNA binding by human eIF4H | actives 0.94% (n = 290,000) | inhibition, % at 35 µM | AID 2012 | Q15056 | eIF4H fluorescence polarization binding assay;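 active = 50% or more with normal probe brightness, or confirmed in later tests; inconclusive = above 50% with abnormal brightness, or retests that disagree; inactive = below 50% or failed in later tests; about a fifth of its hits are not listed in these tables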;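 note: calls also rest on retests at 20 µM and on dose response follow-up; 0% = protein and probe with vehicle and 100% = probe without protein; strong numbers were not always called active; many hits fall short of the cut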
# CSC inhib: cancer stem cell inhibition; cancer stem cell-like cells viability, luminescence; inhibition, % at 7.5 µM; actives 1.1% (n = 300,000); AID 2717;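 active = mean at 75% or more and at least half the replicates too; inconclusive = mean and replicates disagree; tested in HMLE shEcad cells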;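 note: 0% = median of negative and 100% = median of positive control wells; the first replicate is given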
# PABP FP inh: PABP-poly(A) binding inhibition. PABP-poly(A) RNA binding, fluorescence polarization. actives 1% (n = 290,000). inhibition, % at 35 µM. P11940. AID 2014;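 active = 50% or more with normal probe brightness, or confirmed in later tests; inconclusive = above 50% with abnormal brightness, or retests that disagree; inactive = below 50% or failed in later tests; about a fifth of its hits are not listed in these tables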;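 note: calls also rest on retests at 20 µM and on dose response follow-up; controls were probe without protein and protein plus probe with vehicle; some compounds called inactive have numbers as strong as hits; many hits fall short of the cut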
# Target sequence (P11940 whole entry, looked up): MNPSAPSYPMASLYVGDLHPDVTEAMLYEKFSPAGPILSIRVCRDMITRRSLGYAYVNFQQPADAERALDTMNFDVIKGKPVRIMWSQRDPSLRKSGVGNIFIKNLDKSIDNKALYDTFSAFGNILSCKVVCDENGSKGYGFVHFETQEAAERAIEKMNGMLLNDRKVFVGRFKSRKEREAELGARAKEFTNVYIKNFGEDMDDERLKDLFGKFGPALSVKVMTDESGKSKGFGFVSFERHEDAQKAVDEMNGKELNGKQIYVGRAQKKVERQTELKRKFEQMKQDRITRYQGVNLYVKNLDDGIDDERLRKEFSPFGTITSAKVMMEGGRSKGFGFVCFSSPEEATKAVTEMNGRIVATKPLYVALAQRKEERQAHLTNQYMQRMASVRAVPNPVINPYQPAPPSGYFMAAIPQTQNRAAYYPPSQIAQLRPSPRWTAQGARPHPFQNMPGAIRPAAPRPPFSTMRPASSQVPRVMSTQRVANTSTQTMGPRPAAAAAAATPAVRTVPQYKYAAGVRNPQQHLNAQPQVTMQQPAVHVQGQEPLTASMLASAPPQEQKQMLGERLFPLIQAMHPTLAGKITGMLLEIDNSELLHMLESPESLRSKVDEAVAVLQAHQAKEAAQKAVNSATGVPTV
# eIF4H FP inh retest: recorded beside eIF4H FP inh, whose call it bears; inhibition, %; compound at 20 µM; confirmation average;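 mean of two retest wells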
# PABP FP inh retest: second read-out of PABP FP inh, no call of its own (marks repeat the call); inhibition, %; compound at 20 µM; confirmation repeats;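 mean of two retest wells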
# MT1-MMP act inh RFP: further read-out of MT1-MMP act inh, marked with its call; RFP signal change, %; measured here: RFP expression control read;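 0 = vehicle wells; hits needed this value within 50% of zero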
# * hit, by the source's call; i = inactive; ? = inconclusive; / = not tested or not shown; + = active, no number.
SMILES,Yeast UUG start,Env fusion inh,Rce1 inh,MT1-MMP act inh,MT1-MMP act inh RFP,eIF4H FP inh,CSC inhib,PABP FP inh,others
O=C(O)c1ccc(NS(=O)(=O)c2cccc(C(=O)Nc3ccccc3[N+](=O)[O-])c2)cc1,-21,17,i,0,2,1,/,10,
COc1ccc(NC(=O)c2c(N)no[n+]2[O-])c(OC)c1,/,-46,i,4,2,0,8,-7,
COc1ccc(/C(C)=N/NC(=S)NCCc2ccccc2)c(O)c1,-26,7,i,2,2,-2,47,5,
O=C(COC(=O)c1cccnc1Cl)NCCCc1ccccc1,-6,7,/,-1,4,/,-23,/,
O=S(=O)(NCc1ccc(Cl)cc1Cl)c1cccs1,3,-1,i,-1,3,2,-6,6,
CC(O)/C=C/c1ccc2ccccc2n1 (stereo not drawn),-18,32,i,-20,-9,1,15,-7,
N#CCCS(=O)(=O)c1ccc(N)cc1,/,-33,i,0,5,0,10,1,
CCN(CC)S(=O)(=O)c1ccc(CNC(=O)CN2C(=O)NC3(CCc4ccccc43)C2=O)cc1 (stereo not drawn),2,-15,/,-1,-2,/,/,/,
O=C(NC(Cc1ccc(O)cc1)C(=O)O)c1ccco1 (stereo not drawn),/,13,i,-2,7,20,-11,1,
Cc1ccc(N(CN2C(=O)NC(C)(C)C2=O)CN2C(=O)NC(C)(C)C2=O)cc1,/,-15,i,0,-2,4,8,8,
CCOC(=O)c1c(C)oc2c1cc(NS(=O)(=O)c1ccc(C(=O)O)cc1)c1ccccc12,-1,-2,i,3,10,5,31,24,
COc1ccc(C(=O)NNC(=O)CN2CCC(n3nnc4cc(C(F)(F)F)ccc43)CC2)cc1,6,/,/,1,-4,-4,-7,-2,
O=C(NC1CCCCC1)c1ccccc1NC(=O)C1CC(=O)N(c2ccccc2)C1 (stereo not drawn),-3,-58,i,3,1,-6,-16,6,
CN(c1ccc(C(=O)Nc2nccs2)cc1)S(=O)(=O)c1ccccc1,-34,-39,i,11,-3,0,/,-8,
CCOC(=O)CNC(=O)c1cccnc1Oc1ccc(Cl)cc1,3,2,i,2,3,7,-6,11,
COc1ccc(-c2[nH]ncc2CN(CCO)CC23CC4CC(CC(C4)C2)C3)c(OC)c1,-17,5,i,-4,1,-9,-6,-3,
CSc1ccn(CCC(=O)O)c(=O)n1,-12,/,i,-3,-1,-4,-14,-6,
CCC(CC)COC(=O)C(C#N)c1nc2ccccc2nc1N1CCN(CC)CC1 (stereo not drawn),8,7,i,-20,-7,81*,-2,53*,
Cc1nn(-c2ccccc2)c2sc(C(=O)O)cc12,-14,-13,i,-1,2,11,-1,0,
CCCS(=O)(=O)Nc1c(OC)ccc2c1c(C(=O)OCC)c(C)n2C,/,-9,i,8,4,2,-1,2,
CCCCCCN(C(=O)CCCN1C(=O)NC(c2ccc(-c3ccccc3)cc2)C(C(=O)OCc2ccccc2)=C1C)C(C)C(=O)NCCCC (stereo not drawn),-29,41,/,-17,-25,/,/,/,
Cc1ccc(NC(=O)CN(C)C(=O)Cn2c(=O)oc3ccccc32)cc1,-4,2,/,-10,2,/,/,/,
COC(=O)C(C)Oc1ccc(-c2nccc(-c3cccs3)n2)cc1 (stereo not drawn),-18,/,i,4,4,-1,/,6,
OC[C@@H]1CN(Cc2ccccc2)C[C@H](n2cnc3c(Nc4ccccc4)ncnc32)O1,-6,-1,/,-1,-4,/,/,/,
COc1cccc(/C=C/C(=O)OCC(=O)c2ccc3c(c2)NC(=O)CO3)c1,-13,-6,/,-8,-7,/,13,/,
O=C(OCc1ccc([N+](=O)[O-])cc1)c1ccc(N2CCCC2)c([N+](=O)[O-])c1,/,/,i,8,5,-1,-4,-4,
CC(C)n1nc(C(=O)Oc2cccc(Cl)c2Cl)c2ccccc2c1=O,/,13,i,1,2,3.7*,0,60*,eIF4H FP inh retest=83*;PABP FP inh retest=68*
O=C(NC1CC1)C1CCN(c2ccc(S(=O)(=O)N3CCOCC3)cc2)CC1,-3,/,i,3,2,3,/,0,
CCCCn1c(N)c(N(CC)C(=O)c2cccc(F)c2)c(=O)[nH]c1=O,1,9,i,-1,-1,1,11,8,
CCCCC(CC)CNC(=O)CCS(=O)(=O)c1cccc2nonc12 (stereo not drawn),-7,-21,i,1,-2,-6,-5,-19,
CCCCNC(=O)c1nn2c(C(F)(F)F)cc(-c3ccccc3)nc2c1Br,-15,17,i,5,-2,-14,/,1,
CC(=O)c1cc(CN2CCN(CCc3ccccc3)C(CCO)C2)cs1 (stereo not drawn),/,-8,i,-2,6,-2,-6,-8,
Cc1ccc(F)cc1-c1cc2nc(NCCCN(C)C)n(C)c(=O)c2s1,-9,-90,/,-2,3,/,/,/,
CCOC(=O)/C=C1\SCC(=O)N1CC(=O)N1CCOCC1,/,3,i,-4,0,2,-7,5,
CCOc1ccc2[nH]c(C)c(CN3CCOCC3)c(=O)c2c1,-29,/,i,-1,1,6,2,-1,
CN(Cc1cn(-c2ccccc2)nc1-c1cc2ccccc2o1)C(=O)CCC(=O)O,/,11,i,4,7,8,-4,0,
C/C(N)=C(/C#N)C(=O)COC(=O)c1ccc(C#N)cc1,-7,1,i,10,-4,0,8,-6,
COc1ccccc1-c1cnn2c(NCc3ccccc3)cc(C)nc12,4,4,i,-3,-1,-5,-2,-3,
C=CCn1c(SCC(=O)NNC(=S)Nc2ccccc2)nnc1-c1ccccc1,2,-1,i,1,-2,6,-3,5,
COCCn1c(=S)[nH]c2cc(C(=O)NCc3ccc(F)cc3)ccc2c1=O,-15,-5,/,6,-2,/,/,/,
CCOc1ccc(N(CC(=O)N/N=C(\C)c2cccc(NC(C)=O)c2)S(=O)(=O)c2ccccc2)cc1,-5,-5,i,-2,-2,-7,-12,-3,
O=C(CC1SC(N2CCOCC2)=NC1=O)Nc1cc([N+](=O)[O-])ccc1Cl (stereo not drawn),/,-1,i,2,4,?,-3,64*,PABP FP inh retest=81*
CC(O)c1nc2ccccc2n1Cc1nnc(-c2ccc(Cl)cc2)o1 (stereo not drawn),-6,-38,i,-1,-2,-3,-5,-5,
COc1ccc(N2CCN(C(=O)c3cccnc3)CC2)c([N+](=O)[O-])c1,43,-3,i,3,2,-8,/,-4,
Cc1ccc(NS(=O)(=O)c2ccc(C(=O)N3CCN(c4ncccn4)CC3)cc2)cc1,/,32,i,-14,-19,15,-13,3,
CCOc1ccc(NC(=O)CCC(=O)NNC(=O)c2ccccc2Cl)cc1,7,-19,i,-3,1,-8,-3,-6,
O=C(NCC1CCCO1)C(c1cccs1)N(Cc1cccs1)C(=O)c1ccc(-c2ccccc2)[nH]1 (stereo not drawn),/,-73,i,-22,-21,-1,-4,1,
COc1ccc(C(=O)Nc2nc(-c3ccccc3)c(C(C)=O)s2)c(OC)c1,/,-44,i,2,2,-8,47,-9,
c1ccc(Cn2nnc3c(N4CCOCC4)ncnc32)cc1,-16,9,i,1,2,5,1,-8,
Cn1nc(C(=O)Nc2ccc(Cl)cc2)cc1C(=O)Nc1ccc(Cl)cc1,3,8,i,1,0,0,-9,9,
CCOC(=O)c1oc2cccc(O)c2c1CN(Cc1ccccc1)C(C)=O,-8,60*,i,-6,3,-10,-11,-12,
Cc1oc(-c2ccc(Cl)cc2)nc1CS(=O)CC(=O)NCc1ccco1 (stereo not drawn),-3,3,+,0,5,2,-8,-4,
CCOC(=O)C1=NN(c2cccc(C)c2)C2(S1)SC(C(C)=O)=C(C)N2c1ccccc1 (stereo not drawn),-13,6,i,-3,-3,-10,1,0,
COC(=O)c1c(NC(C)=O)csc1C,-20,-12,i,0,2,-6,0,-1,
CCOc1ccccc1C(=O)N[C@H](C(=O)Nc1nc2c(s1)CCCC2)C(C)C,/,-25,i,-14,-11,3,48,-1,
Cc1ccc(C(=O)NCCOC23CC4CC(CC(C4)C2)C3)cc1,9,/,i,-1,0,-6,19,0,
COc1ccc(CN2CCN(C(=O)Cn3nc(C)n4cccc4c3=O)CC2)c(OC)c1OC,-11,0,i,2,0,-9,-5,-1,
Cc1ccccc1S(=O)c1ccccc1C(=O)O (stereo not drawn),/,-5,i,2,2,-5,-13,-2,
O=C(COc1ccc(C(=O)c2ccccc2)cc1)Nc1cccnc1,-1,11,/,4,-30,-3,0,-2,
Cc1ccccc1OCc1nnc(SCc2nc3ccccc3c(=O)[nH]2)n1C,/,-5,/,-3,-1,8,-9,-1,

# Looked up one by one from the list above, two records:
SMILES,Yeast UUG start,Env fusion inh,Rce1 inh,MT1-MMP act inh,MT1-MMP act inh RFP,eIF4H FP inh,CSC inhib,PABP FP inh,others
CN(Cc1cn(-c2ccccc2)nc1-c1cc2ccccc2o1)C(=O)CCC(=O)O,/,11,i,4,7,8,-4,0,
c1ccc(Cn2nnc3c(N4CCOCC4)ncnc32)cc1,-16,9,i,1,2,5,1,-8,

# (continued)
SMILES,Yeast UUG start,Env fusion inh,Rce1 inh,MT1-MMP act inh,MT1-MMP act inh RFP,eIF4H FP inh,CSC inhib,PABP FP inh,others
O=C1c2ccccc2C(=O)N1CC1c2ccccc2CCN1C(=O)CN1CCOCC1 (stereo not drawn),/,6,i,-1,1,2,0,-4,
CCC(=O)Nc1cc(C(=O)OCc2ccc(C(=O)Oc3ccccc3)cc2)ccc1C,/,/,i,-6,1,-4,-2,-14,
Cc1cc(C)nc(SCC(=O)O)n1,-10,/,i,8,3,-2,-5,-6,
CCC(=O)c1cn(CC(=O)Nc2cccc(C)c2C)c2ccccc12,-26,-23,i,5,-5,-13,-4,-9,
CC(=O)c1ccc(OCCCC(=O)Nc2cccc(S(=O)(=O)N3CCCCCC3)c2)cc1,-3,9,/,-2,-17,/,-9,/,
COc1ccc(NS(=O)(=O)c2ccc(C(=O)OC(C)C(=O)N3CCOCC3)cc2)cc1 (stereo not drawn),1,-11,/,-2,-4,-5,-4,0,
Cc1ccc(Cn2nnc3c(=O)[nH]c(C4CCN(S(=O)(=O)c5ccc(C)cc5)CC4)nc32)cc1,-5,-60,i,-2,0,6,/,5,
CCCCc1ccc(NC(=S)N2CCN(C(=O)OCC)CC2)cc1,-10,-15,i,7,-6,-17,2,0,
OCCC1CN(CCCc2ccccc2)CCN1Cc1ccccc1 (stereo not drawn),-20,10,i,0,3,-2,20,-4,
O=C(NCCOc1ccccc1)C1CCC(=O)N(Cc2ccc(Cl)cc2)C1 (stereo not drawn),-3,6,i,-1,-1,0,0,-2,
O=C(NC(=S)Nc1ccccc1N1CCCC1)c1ccc(F)cc1,/,-4,i,2,5,5,-2,-13,
O=C(CN(C(=O)CSc1nc2ccccc2o1)c1cccc(F)c1)NC1CCCCC1,-11,/,i,3,-3,0,/,4,
CCOC(=O)C1CCCN(CCC(=O)Nc2cccc(F)c2)C1 (stereo not drawn),-13,/,i,5,4,-3,-3,0,
COc1cccc(-c2cnc3c(NC(C)=O)cc(-c4ccc(C(=O)N5CCOCC5)cc4)cn23)c1,-9,26,/,-3,3,/,/,/,
CCC1Oc2ccccc2N(Cc2ccccc2C)C1=O (stereo not drawn),-23,-1,i,3,3,-5,1,0,
COc1cc2cc3c(N)c(C(=O)Nc4sc(C)c(C)c4C#N)sc3nc2cc1OC,-13,8,i,-57,3,89*,-5,71*,eIF4H FP inh retest=79*;PABP FP inh retest=55*
O=C(NCc1ccc(C(F)(F)F)cc1)C12CN(Cc3ccccc3)CC1C(c1cccc([N+](=O)[O-])c1)=NO2 (stereo not drawn),-18,-19,i,-20,-24,0,10,8,

# These rows are one share of the data; count on the stated rates, not on these rows.
